High-throughput results deposited in PubChem BioAssay by Broad Institute.
AF4-AF9 inh: inhibitors of AF4 peptide binding to AF9, primary screen, biochemical, AlphaScreen, biotin-AF4 peptide, FLAG-AF9, single point. inhibition, % at 10 µM. 0.47% of 350,000 active. AID 651704, 2012;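 active = every replicate reaching a set inhibition limit, whatever the replicate mean, cut at about 25% in these data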;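 note: 0% = plate neutral control median and 100% = total signal loss; the record names both 10 and 1 µM as test concentration; the first replicate is given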
Target sequence (P42568 whole entry, looked up): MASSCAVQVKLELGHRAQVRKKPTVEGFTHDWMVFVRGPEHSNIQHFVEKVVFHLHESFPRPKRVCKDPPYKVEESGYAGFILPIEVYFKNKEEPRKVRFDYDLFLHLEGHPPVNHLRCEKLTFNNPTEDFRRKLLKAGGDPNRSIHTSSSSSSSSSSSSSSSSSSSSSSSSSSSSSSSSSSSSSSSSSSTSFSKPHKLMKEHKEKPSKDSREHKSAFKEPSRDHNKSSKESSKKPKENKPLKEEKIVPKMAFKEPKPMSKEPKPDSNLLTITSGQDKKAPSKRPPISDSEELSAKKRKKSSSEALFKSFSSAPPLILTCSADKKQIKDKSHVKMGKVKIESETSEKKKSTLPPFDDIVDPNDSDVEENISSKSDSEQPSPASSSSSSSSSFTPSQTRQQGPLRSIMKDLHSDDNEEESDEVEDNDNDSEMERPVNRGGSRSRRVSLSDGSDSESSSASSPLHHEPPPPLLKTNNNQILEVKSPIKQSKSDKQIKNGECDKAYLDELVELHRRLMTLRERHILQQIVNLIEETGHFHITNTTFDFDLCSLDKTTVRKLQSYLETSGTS
Active calls of the source: *.

SMILES	AF4-AF9 inh
CCCC(=O)Nc1ccc2c(c1)OC[C@@H](C)N(C(=O)CN(C)C)C[C@H](C)[C@@H](OC)CN(C)C2=O	-1.3
N#Cc1cccc(-c2ccc([C@H]3[C@@H](CO)N4CCCCN(C(=O)Nc5cccc(F)c5)C[C@H]34)cc2)c1	7.0
COc1ccccc1C#Cc1cnc2c(c1)C(=O)N([C@@H](C)CO)C[C@H](C)[C@H](CN(C)C(=O)CN(C)C)O2	3.5
Cc1cccc(OC(C)C(=O)Nc2ccc3c(c2)OCCO3)c1 (stereo not given)	-0.9
CO[C@@H]1CN(C)C(=O)c2ccc(NC(=O)C3CCC3)cc2OC[C@@H](C)N(Cc2ccc(F)cc2)C[C@H]1C	3.1
O=C(C[C@@H]1C[C@@H]2c3cc(NC(=O)c4ccc5c(c4)OCO5)ccc3O[C@@H]2[C@H](CO)O1)NCc1ccc(Oc2ccccc2)cc1	0.8
C[C@H]1CN([C@@H](C)CO)C(=O)c2cc(NC(=O)Cn3cnnn3)ccc2O[C@H]1CN(C)Cc1ccc(Oc2ccccc2)cc1	-2.0
OC[C@H]1[C@@H](c2ccc(/C=C/c3ccccc3)cc2)[C@@H]2CN(Cc3cncnc3)CCCCN12	18
CCNC(=O)C1(C)CCCN(C(=O)C2(c3ccc(Cl)cc3)CCCC2)C1 (stereo not given)	-3.3
C[C@@H]1CN([C@H](C)CO)C(=O)Cc2cc(NS(=O)(=O)c3cn(C)cn3)ccc2O[C@H]1CN(C)CC1CCCCC1	-1.3
C[C@@H]1CN([C@@H](C)CO)C(=O)c2cccc(NS(=O)(=O)c3ccccc3)c2O[C@H]1CN(C)Cc1ccc(C(F)(F)F)cc1	2.6
CCCc1nc2c(C)cc(Br)cn2c1Cc1cccc(F)c1	-1.3
C[C@H](CO)N1C[C@H](C)[C@@H](CN(C)C(=O)NC2CCCCC2)Oc2ccc(NC(=O)Nc3ccc(C(F)(F)F)cc3)cc2CC1=O	3.5
C[C@@H]1CCCCO[C@@H](CN(C)C(=O)CCC(F)(F)F)[C@@H](C)CN([C@@H](C)CO)C(=O)c2cc(NC(=O)Cc3ccccc3)ccc2O1	-3.7
O=C1NC[C@H](CCCCN2C[C@H](Cc3ccc(O)cc3)N(CC3CCCCC3)C(=O)C2=O)N(CC2CCCCC2)C1=O	6.2
CCCNC(=O)[C@@H]1[C@@H](CO)[C@@H]2Cn3c(cccc3=O)[C@@H]2N1CC1CCCCC1	0.8
CSc1ccc(C(O)c2ncc(-c3ccccc3F)[nH]2)cc1 (stereo not given)	10
COC(=O)C1CCN(C2CN(Cc3ccccc3)S(=O)(=O)C2)CC1 (stereo not given)	-1.7
C[C@@H]1CN([C@H](C)CO)S(=O)(=O)c2ccc(-c3ccncc3)cc2O[C@H]1CN(C)C	0.2
Cc1noc(C)c1NC(=O)N(C)C[C@@H]1Oc2c(NC(=O)C3CC3)cccc2C(=O)N([C@@H](C)CO)C[C@H]1C	-1.9
C[C@H]1CN([C@@H](C)CO)C(=O)c2cc(C3=CCCC3)cnc2O[C@H]1CN(C)C(=O)C1CCC1	-9.2
CCCNC(=O)N1C[C@H]2[C@@H](c3ccccc31)[C@@H](CO)N2C(=O)c1ccncc1	-0.4
C[C@@H]1CN([C@@H](C)CO)C(=O)c2cc(-c3cncnc3)cnc2O[C@@H]1CN(C)Cc1cncnc1	-1.6
COCCCn1cnn2c(=O)c3ccccc3nc2c1=O	4.0
COCC#Cc1ccc2c(c1)O[C@H](CN(C)C(=O)C1CCCCC1)[C@@H](C)CN([C@H](C)CO)S2(=O)=O	-1.1
CCOC(=O)C1(C)CCCCN1C(=O)c1ccnc(Cl)c1 (stereo not given)	-3.9
CC1(C(=O)NS(=O)(=O)c2cccc(F)c2)CCN1C(=O)Cc1ccccc1Cl (stereo not given)	-1.1
CCC(=O)N1[C@@H]2CN(C(=O)c3ccncc3)c3ccccc3[C@@H]2[C@@H]1CO	-5.7
Cc1noc(C)c1S(=O)(=O)Nc1ccc2c(c1)C(=O)N([C@@H](C)CO)C[C@H](C)[C@H](CN(C)C(=O)CCC(F)(F)F)OCCCC[C@@H](C)O2	0.2
O=C(C1CCCC1)N1CC(=O)N2[C@H](C1)[C@@H](c1ccc(-c3ccccc3F)cc1)[C@@H]2CO	1.7
Cc1ccccc1-c1cnc2c(c1)C(=O)N([C@H](C)CO)C[C@H](C)[C@H](CN(C)C(=O)CN(C)C)O2	0.5
CO[C@@H]1CN(C)C(=O)c2cc(NC(=O)NC(C)C)ccc2OC[C@@H](C)N(CC2CC2)C[C@@H]1C	-3.0
C[C@H]1CN([C@@H](C)CO)C(=O)CCCn2nncc2CO[C@H]1CN(C)S(=O)(=O)c1cn(C)cn1	0.5
C[C@@H]1CCCCO[C@H](CN(C)C(=O)C2CCCCC2)[C@@H](C)CN([C@@H](C)CO)C(=O)c2cc(NC(=O)c3ccccc3)ccc2O1	1.5
C[C@@H]1CCCCO[C@@H](CN(C)Cc2ccccc2)[C@@H](C)CN([C@@H](C)CO)C(=O)c2cc(N(C)C)ccc2O1	12
O=C1[C@H](Cc2ccccc2)NCCCC[C@H](c2ccco2)N1Cc1ccccc1	3.9
C[C@@H]1CN([C@H](C)CO)C(=O)c2cccc(NS(=O)(=O)c3cn(C)cn3)c2O[C@H]1CN(C)Cc1ccc(C(=O)Nc2ccccc2N)cc1	1.6
COc1ccc(S(=O)(=O)N(C)C[C@H]2OCCCC[C@H](C)Oc3ccc(NC(=O)Nc4cccc5ccccc45)cc3C(=O)N([C@H](C)CO)C[C@H]2C)cc1	-14
C[C@@H]1CN([C@@H](C)CO)S(=O)(=O)c2ccc(C#CC3CCCC3)cc2O[C@@H]1CN(C)Cc1cncnc1	4.9
COc1ccc(CN(C)C[C@H]2Oc3ccc(NC(=O)Cc4cn(C)c5ccccc45)cc3CC(=O)N([C@H](C)CO)C[C@H]2C)cc1	6.8
C[C@H](CO)N1C[C@H](C)[C@H](CN(C)C(=O)Nc2cccc3ccccc23)Oc2ccc(NC(=O)CCC(F)(F)F)cc2C1=O	-2.4
C[C@@H]1CN([C@H](C)CO)C(=O)Cc2cc(NS(=O)(=O)c3ccc(F)cc3)ccc2O[C@H]1CN(C)S(C)(=O)=O	-1.2
COCC(=O)N1CC2(CCN(Cc3ccc(Cl)cc3)CC2)c2c([nH]c3cc(OC)ccc23)[C@H]1CO	18
CO[C@@H]1CN(C)C(=O)c2cc(NC(=O)C3CC3)ccc2OC[C@H](C)N(C)C[C@@H]1C	-0.5
COc1cc(C(=O)Nc2ccc(S(=O)(=O)N3CCCCC3)cc2)ccc1OCC(=O)N1CCOCC1	-0.4

Reprinted from the part before: two compounds, followed by the next part.
SMILES	AF4-AF9 inh
CO[C@@H]1CN(C)C(=O)c2cc(NC(=O)C3CC3)ccc2OC[C@H](C)N(C)C[C@@H]1C	-0.5
COc1cc(C(=O)Nc2ccc(S(=O)(=O)N3CCCCC3)cc2)ccc1OCC(=O)N1CCOCC1	-0.4
COC(=O)[C@@H]1[C@@H](CO)[C@@H]2Cn3c(ccc(-c4cccnc4)c3=O)[C@@H]2N1Cc1ccccc1F	-1.8
CN1c2ccc(Br)cc2[C@H]2[C@H](CCN2C(=O)C2CCOCC2)[C@@H]1CO	-0.7
O=C(N[C@@H]1CC[C@@H](CCNS(=O)(=O)c2ccc(F)cc2)O[C@H]1CO)c1cccnc1	-0.9
CCNC(=O)C[C@H]1CC[C@H]2[C@@H](COC[C@@H](O)CN2C(=O)C2CCOCC2)O1	-1.6
O=C(NCc1ccccc1)c1cc(C2COCCN2C(=O)CCc2ccccc2)on1 (stereo not given)	8.4
C[C@H](CO)N1C[C@H](C)[C@@H](CN(C)C(=O)Nc2ccc(F)cc2)OCCCC[C@H](C)Oc2ccc(NC(=O)Cc3ccccc3)cc2C1=O	-1.6
CN(C)C(=O)C[C@@H]1CC[C@H]2[C@@H](COC[C@H](O)CN2CC2CCOCC2)O1	-6.1
C[C@@H]1CN([C@@H](C)CO)C(=O)c2cc(NC(=O)Nc3ccccc3)ccc2O[C@@H](C)CCCCO[C@@H]1CN(C)C(=O)C1CCCCC1	-1.9
COc1ccc(Cl)cc1Cn1c(C)c(C(=O)NCc2ccccc2C(F)(F)F)sc1=O	-1.9
COc1ccccc1NC(=O)N[C@@H]1C=C[C@@H](CC(=O)N[C@@H](C)c2ccccc2)O[C@H]1CO	-0.2
C[C@@H]1CN([C@H](C)CO)C(=O)Cc2cc(NC(=O)Nc3cccc4ccccc34)ccc2O[C@H]1CN(C)C(=O)Nc1ccccc1	0.5
C[C@H]1CN([C@@H](C)CO)C(=O)c2cc(-c3ccccc3)cnc2O[C@@H]1CN(C)C(=O)Cc1cccnc1	-0.5
CCCNC(=O)C1(C)CCN(C(=O)c2cc(C(C)(C)C)nn2C)C1 (stereo not given)	-0.7
CC(C)NC(=O)Nc1ccc2c(c1)C(=O)N([C@H](C)CO)C[C@H](C)[C@@H](CN(C)Cc1ccc3c(c1)OCO3)O2	-0.4
CO[C@@H]1CN(C)C(=O)c2cc(NC(=O)c3nc4ccccc4s3)ccc2OC[C@H](C)N(Cc2ccncc2)C[C@@H]1C	6.9

10 entries already listed, arranged by length of the SMILES, ascending:
SMILES	AF4-AF9 inh
CCCNC(=O)C1(C)CCN(C(=O)c2cc(C(C)(C)C)nn2C)C1 (stereo not given)	-0.7
O=C(NCc1ccccc1)c1cc(C2COCCN2C(=O)CCc2ccccc2)on1 (stereo not given)	8.4
CN1c2ccc(Br)cc2[C@H]2[C@H](CCN2C(=O)C2CCOCC2)[C@@H]1CO	-0.7
CCNC(=O)C[C@H]1CC[C@H]2[C@@H](COC[C@@H](O)CN2C(=O)C2CCOCC2)O1	-1.6
COc1ccccc1NC(=O)N[C@@H]1C=C[C@@H](CC(=O)N[C@@H](C)c2ccccc2)O[C@H]1CO	-0.2
C[C@H]1CN([C@@H](C)CO)C(=O)c2cc(-c3ccccc3)cnc2O[C@@H]1CN(C)C(=O)Cc1cccnc1	-0.5
COC(=O)[C@@H]1[C@@H](CO)[C@@H]2Cn3c(ccc(-c4cccnc4)c3=O)[C@@H]2N1Cc1ccccc1F	-1.8
CC(C)NC(=O)Nc1ccc2c(c1)C(=O)N([C@H](C)CO)C[C@H](C)[C@@H](CN(C)Cc1ccc3c(c1)OCO3)O2	-0.4
C[C@@H]1CN([C@@H](C)CO)C(=O)c2cc(NC(=O)Nc3ccccc3)ccc2O[C@@H](C)CCCCO[C@@H]1CN(C)C(=O)C1CCCCC1	-1.9
C[C@H](CO)N1C[C@H](C)[C@@H](CN(C)C(=O)Nc2ccc(F)cc2)OCCCC[C@H](C)Oc2ccc(NC(=O)Cc3ccccc3)cc2C1=O	-1.6

Following part.
SMILES	AF4-AF9 inh
CS(=O)(=O)Nc1ccc2c(c1)[C@H]1C[C@H](CC(=O)O)O[C@H](CO)[C@H]1O2	-3.5
CO[C@H]1CN(C)C(=O)c2ccc(NS(=O)(=O)CC(F)(F)F)cc2OC[C@H](C)N(Cc2ccccn2)C[C@@H]1C	-1.7
c1csc(CNc2nc(NCC3CCCCC3)c3sccc3n2)c1	3.8
Cc1ccc(S(=O)(=O)N(C)C[C@@H]2Oc3ncc(-c4cccc(C(F)(F)F)c4)cc3C(=O)N([C@H](C)CO)C[C@@H]2C)cc1	-7.3
O=C(C1CCOCC1)N1CC2(C1)[C@H](c1ccccc1)[C@H](CO)N2C(=O)CC1CC1	-2.3
CCC/C(=C1/c2ccccc2C(=O)N1c1ccccc1)c1ccc(C=O)o1	-0.3
COc1ccccc1S(=O)(=O)Nc1ccc2c(c1)OC[C@H](C)NC[C@H](C)[C@@H](OC)CN(C)C2=O	-1.7
COCC(=O)NC[C@@H]1[C@H](c2ccc(-c3ccccc3)cc2)[C@@H](CO)N1C(C)=O	0.8
COc1ccc(NC(=O)Nc2ccc3c(c2)CC(=O)N([C@H](C)CO)C[C@@H](C)[C@@H](CN(C)C(=O)Nc2ccc(F)cc2)O3)cc1	-3.2
O=C(Cc1ccccc1)N1CC2(C1)[C@H](c1ccccc1)[C@H](CO)N2S(=O)(=O)Cc1ccccc1	-10
CC1(C(=O)NS(=O)(=O)c2ccccc2)CCN1C(=O)Cc1ccc(-c2ccccc2)cc1 (stereo not given)	-1.9
CC(C)(C)[S@@](=O)N1Cc2cc(C(=O)NCc3ccccn3)nc(-c3cccc(-c4ccccc4F)c3)c2[C@H]1CCO	2.4
CCNC(=O)C[C@@H]1CC[C@H]2[C@@H](COC[C@@H](O)CN2C(=O)Nc2ccc3c(c2)OCO3)O1	2.2
C[C@H](CO)N1C[C@H](C)[C@H](CN(C)Cc2ccc(-c3ccccc3)cc2)Oc2ccc(NC(=O)Cc3cn(C)c4ccccc34)cc2C1=O	0.0
CC(=O)C1=CCC(c2ccccc2)N(S(=O)(=O)c2cccc(C)c2)C1 (stereo not given)	-2.5
C[C@H](CO)N1C[C@H](C)[C@H](CN(C)Cc2ccc(C(=O)Nc3ccccc3N)cc2)Oc2c(NC(=O)C3CCCCC3)cccc2C1=O	-9.4
COc1ccc(S(=O)(=O)Nc2ccc3c(c2)C(=O)N([C@H](C)CO)C[C@@H](C)[C@@H](CN(C)Cc2ccccc2)O3)cc1	-1.3
COc1cccc(CNC(=O)C[C@H]2C=C[C@@H](NC(C)=O)[C@@H](CO)O2)c1	-1.9
CC(C)NC(=O)Nc1ccc2c(c1)CC(=O)N([C@H](C)CO)C[C@@H](C)[C@@H](CN(C)CC1CC1)O2	-1.8
CCN1[C@@H]2c3ccc(-c4ccccc4)c(=O)n3C[C@@H]2[C@@H](CO)[C@@H]1C(=O)NCc1ccccc1	2.0
C[C@H]1CN([C@@H](C)CO)C(=O)c2cccc(NC(=O)C3CC3)c2O[C@H]1CN(C)Cc1ccccc1	-3.4
C[C@H](CO)N1C[C@H](C)[C@@H](CN(C)C(=O)c2ccccn2)Oc2cc(C#CC3CC3)ccc2S1(=O)=O	-1.3
C[C@@H]1CN([C@@H](C)CO)C(=O)Cc2cc(NC(=O)c3ccncc3)ccc2O[C@H]1CN(C)C(=O)Nc1ccc(F)cc1	-2.9
O=C(C[C@@H]1C[C@H]2c3cc(NC(=O)C4CCC4)ccc3O[C@H]2[C@@H](CO)O1)NCc1ccncc1	-1.9
CO[C@@H]1CN(C)C(=O)c2cc(NS(C)(=O)=O)ccc2OC[C@H](C)N(C(=O)C2CCCC2)C[C@@H]1C	-1.1

A portion of the library (hit frequency here may not be typical).
